Screening data deposited in PubChem by National Center for Advancing Translational Sciences (NCATS).
2A StopGo: FMDV 2A StopGo reporter, luciferase signal; 410,000 compounds, 1.2% hits; Potency, µM (titrated, usually from 57.9 µM), for inactives: at the highest dose signal change, negative = less light; AID 1159524; human cells with a luciferase reporter of 2A StopGo recoding; control for the full effect not named in the record; active = well fitted falling curve with a large enough effect; inconclusive = small, poorly fitted or top-dose-only effect; inactive = no such curve, though single readings can be large or run the other way; tested in HEK293T cells; further: on the % scale 0 is the no-effect control and ±100 the full control effect; nearly all actives have a fitted effect of over 45% in size; luciferase light after 4 h
Lassa entry inh: blocks Lassa virus binding to or entry into cells | Lassa virus pseudotype entry inhibition, cell reporter; control for the full effect not named in the record | Potency, µM (top dose mostly 37.9 µM), without a hit: at the top dose activity change, negative = inhibition, hits mostly inhibitors | 300,000 compounds, 1.2% hits | AID 540256; active means well fitted inhibition curve with a large enough effect; inconclusive means small, poorly fitted or top-dose-only effect, or effect the other way; inactive means flat fitted curve, though single readings scatter; tested in HEK293 cells; further: on the % scale 0 is the no-effect control and ±100 the full control effect; nearly all actives have a fitted effect of over 50% in size; luciferase read-out
RE007 growth inh: less growth of the S. pombe RE007 Vpr strain. 360,000 compounds, 0.21% hits. Potency, µM (titrated, usually from 92.2 µM), for the others: at the top dose activity change, negative = less growth. S. pombe RE007 Vpr strain, BacTiter-Glo ATP luminescence, 24 h; control for the full effect not named in the record; active = well fitted falling curve with a large enough effect; inconclusive = small, poorly fitted or top-dose-only effect; inactive = no such curve, though single readings can be large or run the other way;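 further: on the % scale 0 is the no-effect control and ±100 the full control effect; nearly all actives have a fitted effect of over 50% in size; the assay follows cell death caused by Vpr and the record does not say whether a fall means rescue or toxicity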
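Fission yeast strain RE007, carrying one chromosomally integrated HIV-1 vpr copy, was seeded at OD 0.01 in PMG+AL medium with 23 nL pinned compound. After 24 h at 30 °C and 99% humidity, viability was read by BacTiter-Glo luminescence.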
MARV entry inh: blocks Marburg virus binding to or entry into cells. Marburg virus pseudotyped entry inhibition, cell reporter; control for the full effect not named in the record; about a third of the inactives were read at about 46 µM. Potency, µM (top dose mostly 37.8 µM), for inactives: top-dose activity change, negative = inhibition, hits mostly inhibitors. 300,000 compounds, 1.8% hits. AID 540276; active = well fitted inhibition curve with a large enough effect; inconclusive = small, poorly fitted or top-dose-only effect, or effect the other way; inactive = flat fitted curve, though single readings scatter; tested in HEK293 cells; about a fifth of its hits are not listed in these tables; further: on the % scale 0 is the no-effect control and ±100 the full control effect; luciferase read-out
Cruzain inh noDet: cruzain (T. cruzi) inhibition without detergent; Potency, µM, inactives show max response, negative = inhibition, most hits filed as inhibitors; purified cruzain, Z-FR-AMC fluorescence, no detergent; 200,000 compounds, 2.3% hits; P25779;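 further: plate controls were enzyme without inhibitor for no effect and buffer without enzyme for full effect; nearly all actives have a fitted effect of over 40% in size; top concentration of the series not given in the record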
Target sequence (P25779 123-467 limits assumed): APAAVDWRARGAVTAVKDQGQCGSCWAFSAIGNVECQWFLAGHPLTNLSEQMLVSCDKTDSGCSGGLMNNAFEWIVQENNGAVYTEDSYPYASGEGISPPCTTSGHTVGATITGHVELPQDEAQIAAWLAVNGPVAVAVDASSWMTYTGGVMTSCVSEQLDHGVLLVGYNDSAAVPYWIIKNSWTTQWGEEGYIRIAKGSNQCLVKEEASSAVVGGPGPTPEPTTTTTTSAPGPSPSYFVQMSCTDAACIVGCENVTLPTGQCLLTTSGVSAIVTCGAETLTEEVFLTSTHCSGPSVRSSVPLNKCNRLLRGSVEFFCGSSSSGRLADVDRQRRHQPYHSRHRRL
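Detergent-free condition (0.00005% Triton X-100) in acetate buffer pH 5.5 with DTT. 1.5 nM enzyme and compound were pre-mixed 15 min, then 2 uM Z-FR-AMC substrate added; reaction progress from fluorescence change between first and third reads (60 s).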
SARS PLP yeast: blocks SARS-CoV papain-like protease in a yeast assay; S. cerevisiae expressing SARS-CoV PLpro, growth rescue; control for the full effect not named in the record; Potency, µM (series often up to 32.9 µM), for inactives: at the highest dose activity, positive = growth rescue; 330,000 compounds, 0.19% hits; active means well fitted rising curve with a large enough effect; inconclusive means small, poorly fitted or top-dose-only effect; inactive means no such curve, though single readings can be large or run the other way; further: 0% is about no effect; nearly all actives have a fitted effect of over 55% in size; growth read by luminescence after 48 h
Cruzain Triton: blocks cruzain activity in presence of Triton detergent; P25779; purified cruzain, Z-FR-AMC fluorescence, 0.01% Triton; Potency, µM, for inactives: max response, negative = inhibition, most hits filed as inhibitors; 200,000 compounds, 0.43% hits; AID 1478;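 further: plate controls were neutral wells for no effect and buffer without enzyme for full effect; nearly all actives have a fitted effect of over 40% in size; top concentration of the series not given in the record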
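Detergent-containing run (0.01% Triton X-100) in acetate buffer pH 5.5 with 5 mM DTT: enzyme at 1.5 nM final, 15 min compound preincubation at room temperature, then 2 uM Z-FR-AMC substrate. Activity taken as 60 s fluorescence increase at 360/450 nm.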
NS1 function inh: blocks influenza NS1 protein function; Potency, µM (doses to about 46.1 µM), inactives show at the highest dose activity, positive = more growth; S. cerevisiae slowed by influenza A NS1, growth recovery by OD600; 270,000 compounds, 0.4% hits; active means well fitted rising curve with a large enough effect; inconclusive means small, poorly fitted or top-dose-only effect; inactive means no such curve, though single readings can be large or run the other way; further: nearly all actives have a fitted effect of over 50% in size
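OD600 was taken as the measure of yeast growth restored by compound in an NS1-expressing S. cerevisiae strain. Cells had been washed out of glucose medium and diluted 1:100 into galactose -URA medium, pH 6.0.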
* hit, by the source's call; ? = inconclusive; · = no result given; & = joins results of further samples; [ ] = remark or other dose. Unless noted, the call rests on the fitted dose curve; in most records, active means well fitted curve in the direction sought with a large enough effect; inconclusive means small, poorly fitted or top-dose-only effect, or another doubt; inactive means no such curve, though single readings can be large; an effect the other way counts as inactive or inconclusive. Potency means the concentration at half of the fitted maximal effect.

Screens in order – RE007 growth inh	Lassa entry inh	SARS PLP yeast	2A StopGo	MARV entry inh	NS1 function inh	Cruzain Triton	Cruzain inh noDet
- O=[N+]([O-])c1cccc2ccc(/C=C/c3cccc(Br)c3)nc12
  -17%	-20%	4%	42%[activator]	-18%	3%	-5.0%	?
- C/C(=N/N1CCN(c2ccccn2)CC1)c1cccc([N+](=O)[O-])c1
  -18%	?	-16%	0%	11%	1%	0.7%	5%
- Cn1c(CC(=O)Nc2ccc(F)cc2)nnc1SCC(=O)NC1CCCCC1
  11%	-7%[46.1 µM]	0%	-4%	-7%[46.1 µM]	-2%	·	·
- COc1cc(SC)ccc1C(=O)NC1CCCc2ccccc21 (configuration not stated)
  -16%	?	-3%	44%[activator]	?	1%	·	·
- O=C1OC(C(=O)Nc2ccc(Cl)c(C(F)(F)F)c2)Cc2ccccc21 (configuration not stated)
  ·	?	·	-3%	21%[46.1 µM]	·	-7.3%	11%
- CC(=O)Nc1ccc(S(=O)(=O)N2CCCC(C(=O)N3CCN(c4ccccc4)CC3)C2)cc1 (configuration not stated)
  7%	-29%	2%	?	?	9%	·	·
- C/C(CC(=O)Nc1ccccc1F)=N\NC(=O)Cc1ccc(Cl)cc1
  -9%	0%	-5%	-15%	16%[46.1 µM]	·	·	·
- Cc1ccccc1CN1CCc2nc(N3CCN(c4ncccn4)CC3)ncc2C1
  ·	?	·	?	·	·	-4.3%	4%
- COc1ccc2[nH]c(C(=O)N3CCCN(Cc4ccc(F)cc4)CC3)cc2c1
  -17%	?	-1%	-9%	?	-31%	·	·
- COc1cc(C(=O)OCC(=O)Nc2c(C)n(C)n(-c3ccccc3)c2=O)c([N+](=O)[O-])cc1OC
  3%	6%	3%	-7%	?	·	·	·
- Cc1nn(C)c(Cl)c1NC(=O)OCc1ccc(F)cc1
  -7%	-16%	-10%	-25%	-5%	-9%	5.2%	-4%
- Cc1ccc(CCN2CC(C(=O)NCCCOC(C)C)CC2=O)cc1 (configuration not stated)
  -1%	0%	7%	-7%	22%	-8%	2.7%	4%
- Cc1cccc(N2CCN(C(=O)C3CCN(Cc4nc(-c5ccc(Cl)cc5)oc4C)CC3)CC2)c1C
  ·	1%[46.1 µM]	·	-14%	·	·	0.9%	0%
- O=C(Nc1ccc(Cl)cc1)C1CCN(c2nc3ccccc3n3cccc23)CC1
  ·	-27%[46.1 µM]	·	-13%	·	·	-10%	23%
- C=CCOc1cccc(C(=O)N2CCCC(Nc3ccc4c(c3)OCCO4)C2)c1 (configuration not stated)
  -16%	-3%	-5%	-22%	-16%	1%	·	·
- CCn1c2ccccc2c2cc(NC(=O)c3ccc(=O)oc3)ccc21
  -17%	2%	0%	?	2%[46.1 µM]	-3%	·	·
- O=C(NC(=S)Nc1ccc(S(=O)(=O)N2CCCC2)cc1)c1cccs1
  1%	-16%	18%	?	4%	11%	-2.7%	5%
- Cc1ccc(NC(C)C(=O)N/N=C/c2c[nH]c3ccccc23)cc1 (configuration not stated)
  -9%	-17%	16%	-12%	?	12%	-7.8%	10%
- O=C(Oc1ccc(-c2ccccc2)cc1)N1CCOCC1
  -20%	71%[14.3 µM]	0%	18%	?	-1%	3.0%	1%
- COc1ccc(N(CC(=O)NC2CCCCC2)C(=O)c2snc(C(N)=O)c2N)cc1
  2%	?	-1%	-7%	-7%	16%	·	·
- COC(=O)C1=CN(c2cccc(Cl)c2)C=C(C(=O)OC)C1c1cccc(OC)c1
  -12%	?	10%	-18%	?	7%	·	·
- CC(NC(=O)CNC(=S)N(Cc1ccccc1)Cc1cccnc1)c1ccccc1 (configuration not stated)
  -2%	0%	4%	43%[activator]	13%	·	·	·
- Cc1cc(C(F)F)n2ncc(C(=O)NCc3ccccc3C(F)(F)F)c2n1
  22%	?	-4%	6%	?	-6%	-4.4%	8%
- CCCOP(=O)(c1ccc(N(C)C)cc1)C(O)c1ccc(Br)cc1 (configuration not stated)
  10%	-13%	0%	35%[activator]	?	-4%	·	·
- CCC(NC(=O)C1C2C=CC(C2)C1C(=O)O)c1ccc(C)cc1 (configuration not stated)
  1%	?	6%	8%	1%	9%	·	·
- CC1(C)OC(=O)C(=CNC(=O)c2c(F)cccc2F)C(=O)O1
  -13%	7%	0%	-18%	2%[14.2 µM]	·	·	·
- CN(C1CC(C)(C)NC(C)(C)C1)S(=O)(=O)CC12CCC(CC1=O)C2(C)C (configuration not stated)
  0%	·	-1%	-9%	·	2%	·	·
- Cc1cccc(C2=NC(C(F)(F)F)(C(F)(F)F)c3c(n(-c4ccc(F)cc4)c(=O)[nH]c3=O)N2)c1
  1%	?	-9%	?	?	2%	-5.4%	4%
- COc1ccc(C(=O)NCC(C)(C)CNC(=O)c2ccc(OC)cc2)cc1
  2%	-24%	·	3%	-11%[46.1 µM]	·	·	·
- COc1ccc(-c2nc(N)ncc2Oc2ccccc2Br)c(O)c1
  4%	0%	0%	-18%	?	-15%	-2.4%	0%
- Cc1ccc(Cl)cc1N1CCN(S(=O)(=O)c2ccc3c(c2)CC(=O)N3C)CC1
  -10%	4%[46.1 µM]	-3%	-20%&-34%	·	18%	·	·
- COc1ccc(S(=O)(=O)Nc2c(C)n(C)n(-c3ccccc3)c2=O)c(Cl)c1Cl
  2%	·	4%	-3%	·	12%	·	·
- COc1cccc(N(C(=O)c2cnccn2)C(C(=O)NC2CCCCC2)c2ccc(Cl)cc2)c1 (configuration not stated)
  -2%	-17%	4%	8%	-7%	-3%	-10%	-8%
- COc1cc(C(=O)N(Cc2ccc(N(C)C)cc2)CC2CCCO2)cc(OC)c1OC (configuration not stated)
  ·	-18%[46.1 µM]	·	7%	4%[46.1 µM]	·	1.2%	18%
- COc1cc(-c2noc(-c3ccc(N4CCCCC4)c([N+](=O)[O-])c3)n2)cc(OC)c1OC
  ·	1%[46.1 µM]	·	-19%	2%[46.1 µM]	·	-10%	-29%
- COc1cc(S(=O)(=O)Nc2ccc3c(c2)C(=O)N(C)C3=O)ccc1NC(C)=O
  1%	17%[46.1 µM]	-5%	-4%	11%[46.1 µM]	·	·	·
- COc1ccccc1NC(=S)N(CCc1ccc(OC)c(OC)c1)Cc1ccccn1
  -9%	15%	3%	-24%	·	·	·	·
- CCCCCN(C(=O)CCC(=O)OCC(=O)N1C(C)CCCC1C)c1c(N)n(CCCC)c(=O)[nH]c1=O (configuration not stated)
  -3%	4%	-4%	-8%	?	2%	·	·
- CC1(C)NC(=O)N(CC(=O)OCC(=O)Nc2cccc(F)c2)C1=O
  -8%	?	5%	-1%	0%	6%	3.9%	-6%
- NC(=O)c1nsc(C(=O)N(c2ccccc2)C(C(=O)NC2CCCC2)c2cccs2)c1N (configuration not stated)
  3%	·	1%	5%	?	-7%	·	·
- Cc1cccc(C)c1NC(=S)N/N=C/c1ccccc1C(=O)O
  14%	·	-1%	-2%	·	6%	·	·
- O=C(N/N=C/c1cccnc1)c1ccc(Cn2cc([N+](=O)[O-])cn2)o1
  11%	-13%[46.1 µM]	1%	-6%	14%[46.1 µM]	·	·	·
- CC1CCCCC1NC(=O)Cc1ccc(S(=O)(=O)N2CCOCC2)s1 (configuration not stated)
  7%	-10%[46.1 µM]	0%	-2%	?	·	·	·
- O=C(CSc1ccccn1)N1CCN(S(=O)(=O)c2ccc(Cl)cc2)CC1
  -15%	26%	1%	-29%	3%[46.1 µM]	·	·	·
- COc1ccc(C(=O)C[n+]2ccc3c(c2)nc(-c2ccccc2)n3C)cc1
  -22%	15%	-15%	-27%	11%	12%	0.1%	-8%
- O=[N+]([O-])c1cccc(NC(=S)NCCc2ccccc2)c1
  7%	-5%	-66%	?	?	-29%	-15%	5%
- O=C1C2Sc3[nH]c(=O)sc3C(c3ccccc3)C2C(=O)N1c1ccc(Cl)cc1 (configuration not stated)
  -11%	-8%	2%	-11%	1%	?	-12%	-17%
- CCCn1c(SCC(=O)Nc2ccc3c(c2)OCCO3)nnc1-c1ccco1
  10%	-10%	4%	-11%	?	-15%	-3.2%	-8%
- Cc1cccc(-n2c(=O)c3ccccc3n3c(=S)[nH]nc23)c1C
  1%	-5%[46.1 µM]	-1%	-6%	13%[46.1 µM]	-7%	·	·
- CCN1CCN(Cc2cc(OC)c(OC)cc2[N+](=O)[O-])CC1
  5%	6%	4%	-11%	1%	5%	2.5%	0%
- Cc1c(N)c(C(C)(C)C)cc(C(C)(C)C)c1[N+](=O)[O-]
  32µM*	-1%	10%	?	?	-5%	-9.5%	-3%
- COc1ccc(C2(CNC(=O)c3cccs3)CCOCC2)cc1
  -14%	·	-1%	-12%	·	3%	·	·
- O=C(c1ccc2c(c1)OCO2)N1CCC2(CC1)Oc1ccc(F)cc1C(=O)C21CC(c2cccnc2)=NO1 (configuration not stated)
  10%	·	6%	-22%	·	-5%	·	·
- O=C(NCC1CCCO1)c1cccc(NC(=O)c2ccc(Br)cc2)c1 (configuration not stated)
  17%	-25%[46.1 µM]	6%	?	2%[46.1 µM]	-20%	·	·
- COC(=O)CCC(=O)Nc1cccc(C(=O)Nc2cccc(Cl)c2)c1
  -5%	-8%	-2%	17%	12%	-1%	-0.1%	7%

An excerpt of these results, with each value named.
COc1ccc(C(=O)C[n+]2ccc3c(c2)nc(-c2ccccc2)n3C)cc1
  RE007 growth inh: -22%
  Lassa entry inh: 15%
  SARS PLP yeast: -15%
  2A StopGo: -27%
  MARV entry inh: 11%
  NS1 function inh: 12%
  Cruzain Triton: 0.1%
  Cruzain inh noDet: -8%
O=[N+]([O-])c1cccc(NC(=S)NCCc2ccccc2)c1
  RE007 growth inh: 7%
  Lassa entry inh: -5%
  SARS PLP yeast: -66%
  2A StopGo: ?
  MARV entry inh: ?
  NS1 function inh: -29%
  Cruzain Triton: -15%
  Cruzain inh noDet: 5%
O=C1C2Sc3[nH]c(=O)sc3C(c3ccccc3)C2C(=O)N1c1ccc(Cl)cc1 (configuration not stated)
  RE007 growth inh: -11%
  Lassa entry inh: -8%
  SARS PLP yeast: 2%
  2A StopGo: -11%
  MARV entry inh: 1%
  NS1 function inh: ?
  Cruzain Triton: -12%
  Cruzain inh noDet: -17%
